# From PubChem
# rRNA inh HTS – inhibitors of bacterial rRNA selective over humanized ribosomes. E. coli WT GFP vs humanized-ribosome RFP mutants, fluorescence, 24 h; active compounds read low; DMSO median 0, no signal -100. 350,000 compounds, 1.6% hits. GFP signal change (wild-type ribosome), % (test concentration not listed);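 active means significant combined selectivity score with lowered wild-type GFP, culture density cut under 30%, mutant RFP and density less affected; inactive means any of these conditions unmet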; further: one replicate is shown; some compounds called inactive have numbers as strong as hits
# FGF22 binding – FGF22 (human) thermal shift binding; 340,000 compounds, 1.5% hits; Q9HCT0; AID 651658; recombinant FGF22 thermal shift, SYPRO orange fluorescence; percent of sucrose octasulfate shift, DMSO zero; calls only at 9.99 µM;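 active means melting point raised past a set limit in the mean and every replicate; three in four hits are not shown here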
# Target sequence (Q9HCT0 whole entry, looked up): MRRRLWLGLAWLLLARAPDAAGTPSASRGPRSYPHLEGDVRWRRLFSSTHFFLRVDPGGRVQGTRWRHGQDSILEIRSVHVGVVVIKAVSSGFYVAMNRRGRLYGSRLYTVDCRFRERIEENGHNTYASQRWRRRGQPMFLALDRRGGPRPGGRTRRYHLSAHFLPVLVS
# rRNA inh HTS OD600 – further read-out of rRNA inh HTS, marked with its call; OD600 change, %; measured here: OD600 growth;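 optical density of the mix in the first replicate; 0 = DMSO median and -100 = no signal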
# rRNA inh HTS RFP – second read-out of rRNA inh HTS, no call of its own (marks repeat the call); RFP signal change, %; measured here: RFP humanized mutant strains;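 first replicate; 0 = DMSO median and -100 = no signal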
# The depositor's hits bear a star; i = inactive; & = joins results of further samples. A portion of the library. The share of hits here may be higher or lower than overall.
# Screens by letter: A = rRNA inh HTS; B = rRNA inh HTS OD600; C = rRNA inh HTS RFP; D = FGF22 binding
> CCCC#Cc1ccc2c(c1)O[C@H](CN(C)C(=O)c1cnccn1)[C@H](C)CN([C@@H](C)CO)S2(=O)=O
  A: -6; B: -6; C: -1.9; D: i

> C[C@@H]1CN([C@@H](C)CO)C(=O)Cc2cc(NS(=O)(=O)c3ccccc3)ccc2O[C@H]1CN(C)Cc1ccc(Cl)c(Cl)c1
  A: 1; B: -2; C: 4.8; D: i

> C[C@H](CO)N1C[C@H](C)[C@H](CN(C)C(=O)c2cnccn2)Oc2ncc(C#CCC3CCCC3)cc2C1=O
  A: 0; B: -8; C: -0.4; D: i

> CN(C)C(=O)c1ccc(-c2ccc([C@@H]3[C@H](C#N)N(S(C)(=O)=O)[C@H]3CO)cc2)cc1
  A: 2; B: 6; C: -2.1; D: i

> CC(C)NC(=O)Nc1cccc2c1O[C@@H](CN(C)S(=O)(=O)c1ccc(F)cc1)[C@H](C)CN([C@@H](C)CO)C2=O
  A: -4; B: 1; C: -2.1; D: i

> CC(C)NC(=O)N(C)C[C@@H]1OCCCC[C@H](C)Oc2ccc(N(C)C)cc2C(=O)N([C@@H](C)CO)C[C@@H]1C
  A: 4; B: 3; C: -4.7; D: i

> C[C@@H]1CN([C@@H](C)CO)S(=O)(=O)c2ccc(C#Cc3ccccc3)cc2O[C@@H]1CN(C)S(=O)(=O)c1cn(C)cn1
  A: -3; B: -7; C: 2.5; D: i

> O=C(C[C@H]1CC[C@H](NS(=O)(=O)c2ccc(F)cc2)[C@H](CO)O1)NCc1ccncn1
  A: 3; B: 3; C: -2.1; D: i

> CC(=O)N1[C@H](CO)[C@@H](c2ccccc2)[C@@H]1CNC(=O)CN1CCOCC1
  A: 0; B: 3; C: -1.1; D: i

> C/C=C/c1ccc2c(c1)O[C@H](CN(C)Cc1ccccc1)[C@H](C)CN([C@H](C)CO)S2(=O)=O
  A: -1; B: -44; C: 32; D: i

> O=C(C[C@@H]1C[C@H]2c3cc(NC(=O)CC4CC4)ccc3O[C@H]2[C@H](CO)O1)NCc1cccnc1
  A: 4; B: 7; C: 1.8; D: i

> C[C@@H]1CN([C@@H](C)CO)C(=O)c2cccc(NC(=O)c3nc4ccccc4s3)c2O[C@@H]1CN(C)Cc1ccc(C(F)(F)F)cc1
  A: -7; B: 4; C: -3.8; D: i

> C[C@H](CO)N1C[C@H](C)[C@H](CN(C)Cc2ccc3c(c2)OCO3)Oc2ccc(NC(=O)C3CCCCC3)cc2C1=O
  A: 2; B: 4; C: -1.0; D: i

> COc1ccccc1-c1cn(CC[C@H]2CC[C@@H](NC(=O)Cc3ccccn3)[C@@H](CO)O2)nn1
  A: -1; B: 0; C: 3.6; D: i

> COc1cccc(-c2ccc3c(c2)[C@@H]2[C@@H](CCN2C(=O)C2CCOCC2)[C@@H](CO)N3)c1
  A: -3; B: 0; C: 1.6; D: i

> COc1ccc(C#Cc2ccc3c(c2)[C@@H]2[C@@H](CCN2S(=O)(=O)c2ccccc2C)[C@H](CO)N3C)cc1
  A: 1; B: 20; C: 3.4; D: i

> O=C(NC1CCCCC1)N[C@H]1CC[C@H](CCNS(=O)(=O)c2ccccc2)O[C@@H]1CO
  A: -1; B: 5; C: 0.9; D: i

> C[C@@H]1CN([C@@H](C)CO)S(=O)(=O)c2ccc(C#Cc3ccccc3)cc2O[C@H]1CN(C)C(=O)c1ccccn1
  A: -7; B: -23; C: 11; D: i

> COc1cccc(CN2[C@@H]3CNC[C@H]2C3c2ccc(-c3ccccc3C)cc2)c1 (stereo partly drawn)
  A: 3&-58; B: -19&-74; C: 15&-13; D: i

> COc1ccc(NC(=O)N[C@H]2CC[C@H](CCNC(=O)CCN3CCCCC3)O[C@H]2CO)cc1
  A: 2; B: 4; C: 0.2; D: i

> COc1ccc(S(=O)(=O)Nc2ccc3c(c2)C(=O)N([C@H](C)CO)C[C@H](C)[C@H](CN(C)Cc2ccc(C(=O)Nc4ccccc4N)cc2)O3)cc1
  A: 0; B: 14; C: -0.5; D: i

> Cc1nn(C)cc1NC(=O)C[C@H]1CC[C@H]2[C@@H](COc3ccc(NC(=O)NC(C)C)cc3C(=O)N2C)O1
  A: 2; B: 1; C: -3.3; D: i

> CCCNC(=O)N(C)C[C@H]1Oc2cc(-c3cccnc3)ccc2S(=O)(=O)N([C@H](C)CO)C[C@@H]1C
  A: 0; B: 14; C: -2.1; D: i

> COc1cccc(-c2ccc3c(c2)O[C@H](CN(C)C)[C@@H](C)CN([C@H](C)CO)S3(=O)=O)c1
  A: 1; B: -12; C: 0.0; D: i

> COc1ccc(S(=O)(=O)N(C)C[C@H]2Oc3ccc(NS(=O)(=O)c4c(C)noc4C)cc3CC(=O)N([C@H](C)CO)C[C@@H]2C)cc1
  A: -2; B: -5; C: 3.3; D: i

> CC(C)NC(=O)Nc1ccc2c(c1)C(=O)N([C@@H](C)CO)C[C@@H](C)[C@H](CN(C)C(=O)Nc1ccc(F)cc1)O2
  A: 1; B: -8; C: -1.9; D: i

> COc1ccccc1NC(=O)N[C@H]1C=C[C@@H](CC(=O)N2CCC(Cc3ccccc3)CC2)O[C@@H]1CO
  A: -7; B: -27; C: 10; D: i

> O=C(O)C[C@H]1C[C@H]2c3cc(NC(=O)c4ccc5c(c4)OCO5)ccc3O[C@H]2[C@@H](CO)O1
  A: -1; B: 8; C: -0.4; D: i

> CCNC(=O)c1cc2c(c(-c3cccc(-c4ccccc4F)c3)n1)[C@H](CCO)N(C(=O)CC1CC1)C2
  A: -5; B: -17; C: 7.6; D: i

> C/C=C/c1ccc([C@H]2[C@@H](C#N)N(C(=O)NC3CCCCC3)[C@H]2CO)cc1
  A: 2; B: -28; C: -6.4; D: i

> CO[C@H]1CC[C@@H]2CCN(C)C(=O)[C@H](C)N(C)C(=O)c3cc(C#N)ccc3OC[C@H]1O2
  A: 2; B: -5; C: 0.1; D: i

> Cc1ccc(S(=O)(=O)N(C)C[C@@H]2Oc3c(NS(=O)(=O)c4ccc(Cl)cc4)cccc3C(=O)N([C@H](C)CO)C[C@@H]2C)cc1
  A: 0; B: 2; C: 3.3; D: i

> CNC[C@H]1OCCCC[C@H](C)Oc2ccc(NC(=O)C3CCCCC3)cc2C(=O)N([C@@H](C)CO)C[C@@H]1C
  A: 6; B: 11; C: 0.3; D: i

> CN(C)C(=O)C[C@@H]1C[C@H]2c3cc(NS(C)(=O)=O)ccc3O[C@H]2[C@@H](CO)O1
  A: 2; B: -5; C: -1.6; D: i

> C[C@@H]1CN([C@H](C)CO)C(=O)c2cc(NC(=O)NC3CCCCC3)ccc2O[C@@H](C)CCCCO[C@H]1CN(C)C(=O)c1ccccc1
  A: -4; B: -4; C: 1.3; D: i

> COc1cccc(NC(=O)N(C)C[C@H]2Oc3cc(C#Cc4ccc(F)cc4)ccc3S(=O)(=O)N([C@H](C)CO)C[C@H]2C)c1
  A: -1; B: 1; C: -1.9; D: i

> CC(=O)N1[C@@H](CO)[C@H](c2ccccc2)[C@@H]1CN(C(=O)c1ccccc1)C(C)C
  A: -3; B: -4; C: 0.7; D: i

> C[C@@H]1CCCCO[C@@H](CN(C)C)[C@H](C)CN([C@@H](C)CO)C(=O)c2cc(NC(=O)c3ccncc3)ccc2O1
  A: 1; B: 0; C: 0.8; D: i

> Cc1noc(C)c1NC(=O)Nc1cccc2c1O[C@@H](CN(C)Cc1ccc(Cl)c(Cl)c1)[C@H](C)CN([C@@H](C)CO)C2=O
  A: -8; B: -19; C: -4.0; D: i

> CCc1csc(N2[C@H](CO)[C@@H](c3ccc(C4=CCCC4)cc3)[C@@H]2C#N)n1
  A: -2; B: -8; C: 3.3; D: i

> C[C@@H]1CN([C@@H](C)CO)C(=O)Cc2cc(NS(=O)(=O)c3cccs3)ccc2O[C@H]1CN(C)Cc1ccccc1
  A: -3; B: -13; C: 5.8; D: i

> Cc1cccc(S(=O)(=O)N2C[C@H](O)COC[C@@H]3O[C@@H](CC(=O)NCc4ccc5c(c4)OCO5)CC[C@H]32)c1
  A: 4; B: -3; C: 1.3; D: i

> CN(C)C(=O)c1ccc(-c2ccc(C3[C@H]4CNC[C@@H]3N4Cc3ccccn3)cc2)cc1 (stereo partly drawn)
  A: 8; B: 10; C: -3.2; D: i

> O=C(N[C@H]1CC[C@@H](CCNS(=O)(=O)Cc2ccccc2)O[C@@H]1CO)c1ccc2c(c1)OCO2
  A: -3; B: -2; C: 1.1; D: i

> COc1ccc(S(=O)(=O)N(C)C[C@@H]2OCCCC[C@H](C)Oc3ccc(NC(=O)Nc4cccc5ccccc45)cc3C(=O)N([C@@H](C)CO)C[C@H]2C)cc1
  A: 2; B: -1; C: -1.4; D: i

> O=C(C[C@H]1CC[C@@H]2[C@H](COC[C@H](O)CN2C(=O)C2CC2)O1)NCc1ccccc1Cl
  A: 2; B: 7; C: -2.2; D: i

> COc1ccc(C#Cc2cnc3c(c2)C(=O)N([C@H](C)CO)C[C@H](C)[C@H](CN(C)S(=O)(=O)c2cccc(F)c2)O3)cc1OC
  A: -2; B: 0; C: -2.6; D: i

> C[C@@H](NC(=O)[C@H]1[C@H](CO)[C@H]2Cn3c(cccc3=O)[C@H]2N1C(=O)C1CC1)c1ccccc1
  A: 1; B: 8; C: -3.2; D: i

> CO[C@@H]1CN(C)C(=O)c2ccc(NC(=O)NC(C)C)cc2OC[C@@H](C)N(C(=O)C2CCC2)C[C@H]1C
  A: 1; B: 1; C: -0.8; D: i

> Cc1noc(C)c1S(=O)(=O)Nc1ccc2c(c1)CC(=O)N([C@@H](C)CO)C[C@@H](C)[C@H](CN(C)Cc1ccc(C(F)(F)F)cc1)O2
  A: -7; B: -20; C: 8.9; D: i

# Further results follow.
# Screens by letter: A = rRNA inh HTS; B = rRNA inh HTS OD600; C = rRNA inh HTS RFP; D = FGF22 binding
> CC=Cc1ccc2n(c1=O)C[C@H]1N[C@@H]2[C@@H](C(=O)NC2CCCCC2)[C@@H]1CO (mixture of isomers)
  A: 9; B: 16; C: -2.7; D: i

> CN1C(=O)c2cc(NC(=O)C3CCCC3)ccc2OC[C@@H]2O[C@H](CC(=O)NCC(F)(F)F)CC[C@@H]21
  A: 0; B: 1; C: -2.1; D: i

> CNC[C@H]1Oc2cc(C#CCN(C)C)ccc2S(=O)(=O)N([C@H](C)CO)C[C@H]1C
  A: 0; B: 1; C: -1.3; D: i

> C[C@H](CO)N1C[C@H](C)[C@@H](CN(C)S(=O)(=O)c2ccc(Cl)cc2)Oc2ccc(NC(=O)Nc3cccc4ccccc34)cc2C1=O
  A: -1; B: 1; C: 0.0; D: i

> O=C(NCC[C@@H]1CC[C@H](NS(=O)(=O)c2ccccc2)[C@@H](CO)O1)c1ccc2c(c1)OCO2
  A: -1; B: 3; C: -0.5; D: i

> O=C(C[C@H]1CC[C@@H]2[C@H](COC[C@H](O)CN2S(=O)(=O)c2ccccc2)O1)NCCN1CCCCC1
  A: 5; B: 19; C: -2.8; D: i

> COCC(=O)Nc1ccc2c(c1)[C@@H]1C[C@@H](CC(=O)NCc3cccc(F)c3)O[C@@H](CO)[C@@H]1O2
  A: -1; B: 4; C: 0.2; D: i

> COc1ccc(NC(=O)N2CC3(C2)CN(C(=O)CN2CCOCC2)[C@@H](CO)c2[nH]c4cc(OC)ccc4c23)cc1
  A: -1; B: 5; C: -6.6; D: i

> C[C@H]1CN([C@@H](C)CO)C(=O)Cc2cc(NC(=O)Nc3ccc4c(c3)OCO4)ccc2O[C@@H]1CN(C)Cc1ccc(C(=O)O)cc1
  A: -2; B: 10; C: -0.6; D: i

> C[C@@H]1CN([C@@H](C)CO)S(=O)(=O)c2ccc(-c3ccncc3)cc2O[C@H]1CN(C)Cc1cncnc1
  A: -4; B: 2; C: 1.1; D: i

> CN1CCN(C(=O)C[C@@H]2CC[C@@H]3[C@H](COC[C@@H](O)CN3C(=O)Nc3cc(Cl)cc(Cl)c3)O2)CC1
  A: -31; B: -39; C: 2.6; D: i

> COc1cccc(S(=O)(=O)N(C)C[C@@H]2Oc3ncc(C#CC(C)C)cc3C(=O)N([C@@H](C)CO)C[C@H]2C)c1
  A: 0; B: -9; C: 0.8; D: i
